Source: PubChem (ICCB-Longwood Screening Facility, Harvard Medical School)
Vaccinia pol inh = vaccinia E9 polymerase processive synthesis inhibition; in vitro processive DNA synthesis, absorbance read-out; active compounds read low; some inactives read as strong as hits; normalized absorbance, % (concentration not given with the values); hit rate 0.94% among 46,000; AID 493162;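 active = replicate mean up to 90% and picked by the depositor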;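 also: 100% = median of the test wells of a plate; 100 nL library stock went into each well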
* = called active by the depositor; & = joins results of further samples. An excerpt. The share of hits here may be higher or lower than overall.

Start of the listing, in advance:
SMILES	Vaccinia pol inh
CC(Sc1ncnc2ccccc12)C(=O)Nc1cccc(C(F)(F)F)c1 (stereo unspecified)	107.8
NCCCCN	100.0
CC(=O)Nc1ccc(NC(=O)C2CCCN2S(=O)(=O)c2cccc3nsnc23)cc1 (stereo unspecified)	104.7

The whole of this part, from the start:
SMILES	Vaccinia pol inh
CC(Sc1ncnc2ccccc12)C(=O)Nc1cccc(C(F)(F)F)c1 (stereo unspecified)	107.8
NCCCCN	100.0
CC(=O)Nc1ccc(NC(=O)C2CCCN2S(=O)(=O)c2cccc3nsnc23)cc1 (stereo unspecified)	104.7
CN(C)c1ccc(C(=O)N2CCc3ccccc32)cc1	88.9
CC(C)N(C(=O)CSc1nc2ccccc2n1C)c1ccccc1	100.7
O=C(O)CNC(=O)C(O)(c1ccccc1)c1ccccc1	109.5
FC(F)(F)c1cc(C(F)(F)F)c(Br)c(-n2cccc2)c1Br	95.7
O=C(CSCc1ccccc1F)NCc1ccccc1	97.7
O=C(O)c1ccc(Oc2ccc(Cl)c(F)c2)cc1	91.2
COc1cccc(CNC(=O)CCCOc2cc(=O)n(C)c3ccccc23)c1	102.7
N#Cc1c(/N=C/c2cccs2)sc2c1CCCC2	94.3
CN1CCc2nc(SCC(=O)Nc3ccccc3OC(F)(F)F)c(C#N)cc2C1	100.3

5 entries from above, with bars between the fields.
Structure | Vaccinia pol inh
O=C(CSCc1ccccc1F)NCc1ccccc1 | 97.7
O=C(O)c1ccc(Oc2ccc(Cl)c(F)c2)cc1 | 91.2
COc1cccc(CNC(=O)CCCOc2cc(=O)n(C)c3ccccc23)c1 | 102.7
N#Cc1c(/N=C/c2cccs2)sc2c1CCCC2 | 94.3
CN1CCc2nc(SCC(=O)Nc3ccccc3OC(F)(F)F)c(C#N)cc2C1 | 100.3

(further entries)
SMILES	Vaccinia pol inh
Cc1cc(=O)[nH]c2c1c(C)nn2-c1ccccc1	101.9
CCOC(=O)C(C)(C)Oc1ccc(Cl)cc1	98.9&100.1&99.0
COc1ccccc1-n1c(SCc2ccc(F)cc2)nc2c(c1=O)SCC2	99.1
Cc1ccc(S(=O)(=O)c2cc3cc(C(=O)Nc4ccc(C)c(C)c4)ccc3oc2=O)cc1	90.0
O=c1c(-c2ccc(OC3O[C@H](CO)[C@@H](O)[C@H](O)[C@H]3O)cc2)coc2cc(O)cc(O)c12 (stereo partly specified)	92.9
CC1(C)C2CCC1(CS(=O)(=O)NCc1ccc(Cl)cc1Cl)C(=O)C2 (stereo unspecified)	89.1
CCOC(=O)C(C)Sc1nnc(NC(=O)c2ccc3ccccc3c2)s1 (stereo unspecified)	100.8
Cc1onc(-c2c(F)cccc2Cl)c1C(=O)NC(=S)NC1CCSC1=O (stereo unspecified)	101.5
O=C1Cn2nnc(C(=O)c3ccccc3)c2C2(CCCCC2)O1	101.2
Cc1c(OCc2ccc(F)cc2)ccc2c3c(c(=O)oc12)CCCC3	100.5
O=C1NCCCC1C(=O)N1CCCCC1 (stereo unspecified)	96.8
CC(Oc1ccc(Cl)cc1Cl)C(=O)Nc1nncs1 (stereo unspecified)	102.7
CC(Cc1c[nH]c2ccccc12)NC(=O)c1ccco1 (stereo unspecified)	100.3
N#CC1=C(SCC(=O)Nc2ccccc2)NC(=O)CC1c1cccc(Br)c1 (stereo unspecified)	95.9
CC(=O)Nc1nnc(-c2ccccc2C)s1	96.3
O=C(/C=C/Sc1nc2cc(Cl)ccc2s1)c1ccc(F)cc1	106.9
O=C1CN(C(=O)c2ccc(Br)o2)C(c2ccccc2)c2cc(Cl)ccc2N1 (stereo unspecified)	100.6
Cn1c(=O)cc(OCC(=O)N2CCCC2)c2ccccc21	95.7
O=C(O)CC1(CC(=O)Nc2ccc(N3CCCCC3)cc2)CCCCC1	101.1
Cc1ccc(SCC(=O)NCc2ccco2)cc1	104.4
NC1=NC(=O)CC(C(=O)Nc2ccc(-c3ccccc3)cc2)S1 (stereo unspecified)	102.7
CN(C(=O)/C=C\c1ccc2c(c1)OCO2)C(C(=O)Nc1ccc2c(c1)OCO2)c1ccccc1 (stereo unspecified)	101.0
O=C(COc1ncnc2ccccc12)N1CCCC1	103.7
C=CCNC(=O)COc1ccc(C(C)C)cc1	99.9
COc1ccccc1-c1nc(N)n[nH]1	98.9
Cc1ccc2[nH]c(=O)c3cc(C(=O)N(C)C4CCCCC4)sc3c2c1	102.2
COC(=O)c1cnc(Cl)cc1Cl	115.1
Cc1cc2n(n1)SC(Nc1ccc(F)c(Cl)c1)N2 (stereo unspecified)	81.0
CC(C)CNS(=O)(=O)c1ccccc1C(=O)N1CCCCC1	100.1
COc1cc(OC)cc(C(=O)NCCOC23CC4CC(CC(C4)C2)C3)c1	97.9
O=C(/C=C/c1cccc(F)c1)Nc1ccon1	85.0
COc1ccc(C(=O)Nc2cc(C)c(O)c(S(=O)(=O)c3ccc(Cl)cc3)c2C)cc1	100.5
CCCN1C(=O)c2cc(C(=O)NC3CCCC3)ccc2C1O (stereo unspecified)	102.2
O=C(O)C1c2ccccc2C(=O)N(C2CCCC2)C1c1cccs1 (stereo unspecified)	102.3
COc1ccc(C(=O)NCCc2nc3ccccc3n2CC(C)C)cc1OC	96.2
Cc1cc(C)c(C#N)c(SCC(=O)Nc2nccs2)n1	99.9
CCCNC(=O)C1CCN(C(=O)c2sccc2-n2cccc2)CC1	97.8
Oc1cc(O)c2c(c1)O[C@H](c1ccc(O)c(O)c1)[C@@H](O)C2	98.4
CC1CCCN(C(=O)c2ccc(NS(=O)(=O)c3cccs3)cc2)C1 (stereo unspecified)	87.9
C=CCN(CC=C)C(=O)Nc1c(C)cc(C)c2c1CC(C)(C)C2=O	107.2
OC1CCN(Cc2ccccc2)CC1	106.2
COc1ccc(S(=O)(=O)N2Cc3ccccc3CC2C(=O)N2CCCCCC2)cc1 (stereo unspecified)	101.1
Cc1ccc(N/C(N)=N/c2nc(C(F)(F)F)cc(C(F)(F)F)n2)cc1	99.8
CCn1nc(C)cc1C(=O)Sc1ccccc1Cl	99.7
C=C1c2c(Cl)ccc(O)c2C(O)=C2C(=O)[C@]3(O)C(O)=C(C(N)=O)C(=O)[C@@H](N(C)C)[C@@H]3[C@@H](O)[C@H]12	100.7
Cc1cccc(NC(=O)Cn2cnc3ccccc3c2=O)c1C	93.9
COC(=O)c1ccsc1NC(=O)c1ccc(N(C)C)cc1	82.7
Cc1noc(C)c1-c1nc(CN2C(=O)c3ccccc3S2(=O)=O)no1	103.3
CN1CCc2ccccc2C1Cc1ccccc1NS(=O)(=O)c1cc(Cl)c(Cl)cc1Cl (stereo unspecified)	94.7
CCOC(=O)N1CCC(NC(=O)c2ccc3c(c2)N=C(CC)c2ccccc2S3)CC1	95.7
CC(C)c1ccc(N=C2CC(=O)NN2)cc1	105.1
CCCn1c2ccccc2c2nnc(SCN3C(=O)c4ccccc4C3=O)nc21	99.5
FC(F)(F)COc1ccc(-c2nc(-c3ccc(Cl)cc3)cs2)cn1	100.1
Cc1cc(C(F)(F)F)nc2ccccc12	95.0
Cc1ccnc2nc(C(=O)Nc3ccc(Cl)cc3F)nn12	102.7
NC(=S)c1[nH]nc2c1[nH]c1ccccc12	97.5
CCOC(=O)c1c(OCC)[nH]c2c1cc(O)c1ccccc12	98.4
O=C(CC(NCCc1ccccc1)C(=O)O)Nc1cccc(Cl)c1 (stereo unspecified)	102.1
Cc1cc(NC(=O)Cc2cn3ccsc3n2)n(-c2ccccc2)n1	102.1
COc1ccc(C2C(C(=O)O)CC(=O)N2Cc2ccccc2)cc1 (stereo unspecified)	94.2

Arranged by number of heavy atoms (low to high): four of the compounds above.
SMILES	Vaccinia pol inh
NC(=S)c1[nH]nc2c1[nH]c1ccccc12	97.5
CC(C)c1ccc(N=C2CC(=O)NN2)cc1	105.1
Cc1ccnc2nc(C(=O)Nc3ccc(Cl)cc3F)nn12	102.7
FC(F)(F)COc1ccc(-c2nc(-c3ccc(Cl)cc3)cs2)cn1	100.1

Following part.
SMILES	Vaccinia pol inh
COC(=O)c1ccc(NC(=O)CSc2nnc(N)s2)cc1	99.8
Cc1cc2nnc(SCc3ccc(Cl)cc3)n2c2ccccc12	100.1
COc1ccc(C(O)CNc2ccc(C)cc2)cc1 (stereo unspecified)	102.8
CC(=O)Nc1c2c(nn1-c1ccc(C)cc1)CS(=O)(=O)C2	98.9
N=C(N)SCc1csc2c1CCCC2	98.8
COc1cccc2c1C(=O)C1C(O)=C3C(=C(O)C1C2=O)C[C@@](O)(C(=O)CO)C[C@@H]3OC1CC(N)C(O)C(C)O1 (stereo partly specified)	7.8*
Cc1nn(-c2ccccc2)c(OC(=O)c2cccs2)c1Sc1ccccc1	100.6
Cc1nc2ccccn2c1C1(O)C(=O)Nc2c(Cl)cc(Cl)cc21 (stereo unspecified)	97.2
N#C/C(=C\O)c1ccc(Cl)cc1Cl	92.2
Cc1ccc2ncc(-c3ccc4cc(C)ccc4n3)cc2c1	99.9
O=C(c1cccc2ccccc12)N(C1CCCC1)C1CCCC1	101.3
CC(=O)n1c(=O)n(C(C)=O)c2ccccc21	89.1
CC(=O)Nc1cccc(-c2nc3ccccc3[nH]2)c1	89.5
Cc1oc(-c2ccc(C(=O)O)cc2)nc1CSc1ccc(Cl)cc1	96.8
CCNc1cc(N2CCCC2)c2noc3c2c1C(=O)c1ccccc1-3	86.1
CCSc1nnc2n(CC)c3ccccc3n12	101.7
CC(=O)Nc1cccc(Oc2ccc3c(c2)C(=O)N(c2ccc(Oc4ccc(C)c(C)c4)cc2)C3=O)c1	100.6
COc1ccccc1/C=C1/C(=O)ON=C1C	99.6
O=C1/C(=C\c2cccs2)SC(=S)N1CCCC(=O)N1CCCc2ccccc21	99.5
COc1ccc2cc3cc(C(=O)NCc4cccs4)sc3nc2c1	106.5
COc1ccccc1NC(=O)CON	96.9
c1ccc(Nc2ncnc3ccccc23)cc1	85.8
COc1ccc(C2NC(c3ccc(OC)cc3)C(C)C(=O)C2C)cc1 (stereo unspecified)	94.6
COc1ccc(Nc2cc(-c3ccccc3)nc3nncn23)cc1OC	98.3
CO[C@@H]1[C@@H](O[C@@H]2O[C@H](C)[C@@H](O[C@H]3C[C@@](C)(O)[C@H](O)[C@H](C)O3)[C@H](N(C)C)[C@H]2O)[C@@H](CC=O)C[C@@H](C)[C@@H](O[C@H]2CC[C@H](N(C)C)[C@@H](C)O2)/C=C/C=C/C[C@H](C)OC(=O)C[C@H]1O	93.3
Cc1ccc2cc(C3CC(c4ccco4)=NN3S(C)(=O)=O)c(=O)[nH]c2c1 (stereo unspecified)	100.0
COc1cc(C(=O)n2c(SCc3ccc(F)cc3)nc3ccccc32)cc(OC)c1OC	99.0
COc1ccccc1CN1CCN(Cc2ccccc2)CC1	99.5
O=C(COC(=O)c1ccccc1O)c1cccs1	98.7
COC(=O)c1sc(C(=O)OC)c2c1OCCO2	100.9
CCn1c(=O)cc(OCC(=O)Nc2cccc(OC)c2)c2ccccc21	104.5
C=CCSC1=C(C#N)C(c2ccc(C)o2)CC(=O)N1 (stereo unspecified)	99.8
O=C(NCCC1=CCCCC1)c1n[nH]c(=O)c2ccccc12	103.2
CC1(C)CC(NC(=O)NC2CCCCC2)CC(C)(C)N1	100.5
O=C(NCc1nc2ccccc2n1Cc1ccc(Cl)cc1)c1ccccc1	109.0
N#CC(C#N)=C(N)/C(C#N)=C/c1ccc2[nH]ccc2c1	99.4&99.5
Cc1cccc(C(=O)Nc2cccc(NC(=O)c3cccc(C)c3)n2)c1	100.1
O=C(CCN1CCN(C2c3ccccc3-c3ccccc32)CC1)Nc1ccccc1F	101.7
C=CCN(CC=C)C(=O)C1c2ccccc2Oc2ccccc21	98.6
Cc1ccc2c(c1)C(c1ccccc1)N(C(=O)c1ccccc1)CC(=O)N2 (stereo unspecified)	92.0
O=C(Nc1ccncc1)c1cccc(COc2ccc3ccccc3c2)c1	99.9
C=C(C)Cc1c(C)nc(SCC(=O)c2ccc(Cl)cc2)nc1OC(=O)N(C)C	97.6
Cc1nc2ccc(S(=O)(=O)NCC(=O)N3CCCC3)cc2s1	102.2
CCOc1ccccc1NC(=O)c1cccc2c1C(=O)N(Cc1cccnc1)C2	92.0
Cn1c(SCc2ccc3c(c2)OCO3)nnc1-c1ccccc1	100.8
CN1CC(=O)NC1=NC(=O)C1CCCN(S(=O)(=O)c2ccc3c(c2)oc(=O)n3C)C1 (stereo unspecified)	99.1
CCC(=O)Nc1nnc(-c2cccs2)o1	103.7
O=C1c2ccccc2C(=O)N1C1CCN(Cc2ccccc2)CC1	102.5
COc1cc(NC(N)=S)c(OC)cc1Cl	102.5
CCn1c(C)nc2cc(OC)ccc21	92.9
COc1ccc(C(=O)OCc2nc3ccccc3s2)cc1	94.1
CC1CCC(NC(=O)Cn2ncc3c4ccccc4n(Cc4ccccc4)c3c2=O)CC1 (stereo unspecified)	100.4
COc1ccc(NC2(C#N)CCCCC2)cc1	101.1
CCOc1ccc(-c2csc(/C(C#N)=C\Nc3ccc(NC(C)=O)cc3)n2)cc1	98.3
Oc1ccccc1C=Nc1ccc(N=Cc2ccccc2O)cc1	82.7
COC(=O)C1=C(N)N(c2ccc(F)cc2)C2=C(C(=O)CC(C)(C)C2)C1c1ccccc1 (stereo unspecified)	100.0
NC[C@H](O)c1ccc(O)c(O)c1	103.1
COc1ccc(C(=O)c2coc3ccc(OC)cc3c2=O)cc1	101.3
COc1cccc(NC(N)=O)c1	78.6
CCOC(=O)CC1Sc2ccccc2N=C1SCC(=O)Nc1cccc(C(F)(F)F)c1 (stereo unspecified)	90.3
Next part.
SMILES	Vaccinia pol inh
O=C(CCn1c(=O)sc2ccccc21)Nc1nccs1	100.4
CC(=O)Oc1ccc2occ(C(=O)c3ccc(Br)s3)c2c1	99.2
c1ccc(CCNc2cc(-c3ccccc3)nc3nncn23)cc1	101.5
CC(NC(=O)c1cc(=O)[nH]c2ccc(Br)cc12)c1ccc2c(c1)OCCO2 (stereo unspecified)	97.4
CCOc1ccc(C(=O)NCC(=O)n2nc(C)cc2C)cc1	100.0
CC(C)CCNC(=O)c1ccc2c(c1)N(Cc1ccccc1)CCS2	102.8
CC(=O)Nc1ncc(CN2CCOCC2)s1	98.3
Cc1ccc(CSc2nnc(N)s2)c(C)c1	99.1
O=c1[nH]nc(SCc2nnc(-c3ccc(Cl)cc3)o2)n1C1CCCCC1	99.5
c1ccc(CSc2nc3ccccc3[nH]2)cc1	95.3
